TRPML1 agonist = qHTS for Agonists of the Human Mucolipin Transient Receptor Potential 1 (TRPML1). Mucolipin-1 (Homo sapiens), Q9GZU1. TRPML1-expressing cells, Ca2+ dye fluorescence, FDSS; host cell line not named in the record; reference of the full effect not given here. activation, % (test concentration not listed). hit rate 0.12% among 410,000. AID 624414, 2012; in the data active = activation above about 50%; inconclusive = about 30% to 50%; inactive = below about 30%; also: 0% is about no effect; the text of the record puts the active cut at 80%
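TRPML1-DL cells, Tet-induced overnight (~16 h, 37 degrees C), loaded 45-90 min at room temperature with Ca8 no-wash calcium dye plus quencher. FDSS fluorescence: 10 s baseline, compound pin-transfer, 110 s agonist read, then EC80 54-4 (4uM final) and 110 s antagonist read.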
TRPV1 potentiator = HTS Assay for Compounds that Act as Potentiators of the Vanilloid Receptor 1; Transient receptor potential cation channel subfamily V member 1 (Homo sapiens), Q8NER1; TRPV1-expressing cells, Fluo-8 calcium influx, capsaicin EC20 potentiation; host cell line not named in the record; control for the full effect not named in the record; potentiation, % at 8.33 µM; hit rate 0.02% among 320,000; AID 540277, 2011; active means potentiation above 80%; inconclusive means 30% to 80%; inactive means below 30%; also: 0% is about no effect
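Cells expressing TRPV1 were dye-loaded with Fluo-8 and read kinetically: 10 s baseline, 3 min after compound (agonist portion), then 2 min after EC20 capsaicin (allosteric enhancer portion). Calcium-bound dye fluorescence at 480/520 nm.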
D2 PAM = Beta-Arrestin HTS for Positive Allosteric Modulators of the Human D2 Dopamine Receptor: Potentiators; D(2) dopamine receptor (Homo sapiens), P14416; DiscoveRx D2 beta-arrestin cells, luminescence, 90 min; 100% = 57 uM dopamine signal; potentiation, % (no concentration beside the values); hit rate 0.23% among 360,000; active = potentiation of 50% or more; inconclusive = 30% to 50%; inactive = 30% or less;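 also: compound concentration not given in the record; tested on top of an EC20 dose of dopamine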
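PathHunter D2 cells, attached overnight at 37 deg C, received compound in DMSO plus dopamine at EC20 (50 nM final) for 90 min at 37 deg C. Beta-arrestin recruitment was read as luminescence after 1 h with detection reagent at ambient temperature.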
CtBP-E1A inh = qHTS Assay for Inhibitors of the CtBP/E1A Interaction; AlphaScreen GST-E1A/His-CtBP binding, 1536-well; active compounds read low; control for the full effect not named in the record; activity change, % (no concentration beside the values); hit rate 0.49% among 340,000; in the data active means activity change below about -65%; inconclusive means about -30% to -65%; inactive means above about -30%; also: % is scaled to controls: 0 for no effect and ±100 for the full control effect
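In 5 uL wells, 23 nL compound meets equimolar GST-E1A and His-CtBP (5X stock 125 nM each) for 2 h, 37 °C. Beads (5X, 50 ug/mL) then 1 h, 37 °C, dark.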
TRPML1 blocker = qHTS for Inhibitors of the Human Mucolipin Transient Receptor Potential 1 (TRPML1); activity change, negative = inhibition, % (test concentration not listed); TRPML1-inducible cells, Ca2+ dye fluorescence, FDSS; active compounds read low; inhibition of EC80 agonist-evoked calcium signal; hit rate 0.02% among 390,000; Mucolipin-1 (Homo sapiens), Q9GZU1; in the data active means activity change below about -50%; inconclusive means about -30% to -50%; inactive means above about -30%;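 also: stimulus is agonist 54-4 at its EC80 concentration; % is scaled to controls: 0 for no effect and ±100 for the full control effect; compound concentration not given in the record; the text of the record puts the active cut at -80%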
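Tet-induced TRPML1-DL cells loaded with Ca8 no-wash calcium dye were read kinetically on FDSS. Compound addition was followed by EC80 agonist 54-4 (4 uM final); inhibition was read over 110 s.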
Six1-Eya2 blk = qHTS Assay for Inhibitors of the Six1/Eya2 Interaction. Homeobox protein SIX1 (Homo sapiens) + Protein phosphatase EYA2 (Homo sapiens), …. AlphaScreen GST-Six1/His-Eya2 binding, biochemical; active compounds read low; control for the full effect not named in the record. activity change, % (concentration not given with the values). hit rate 0.56% among 360,000; in the data active = activity change below about -65%; inconclusive = about -30% to -65%; inactive = above about -30%; also: % is scaled to controls: 0 for no effect and ±100 for the full control effect
Target sequence (O00167 whole entry, looked up): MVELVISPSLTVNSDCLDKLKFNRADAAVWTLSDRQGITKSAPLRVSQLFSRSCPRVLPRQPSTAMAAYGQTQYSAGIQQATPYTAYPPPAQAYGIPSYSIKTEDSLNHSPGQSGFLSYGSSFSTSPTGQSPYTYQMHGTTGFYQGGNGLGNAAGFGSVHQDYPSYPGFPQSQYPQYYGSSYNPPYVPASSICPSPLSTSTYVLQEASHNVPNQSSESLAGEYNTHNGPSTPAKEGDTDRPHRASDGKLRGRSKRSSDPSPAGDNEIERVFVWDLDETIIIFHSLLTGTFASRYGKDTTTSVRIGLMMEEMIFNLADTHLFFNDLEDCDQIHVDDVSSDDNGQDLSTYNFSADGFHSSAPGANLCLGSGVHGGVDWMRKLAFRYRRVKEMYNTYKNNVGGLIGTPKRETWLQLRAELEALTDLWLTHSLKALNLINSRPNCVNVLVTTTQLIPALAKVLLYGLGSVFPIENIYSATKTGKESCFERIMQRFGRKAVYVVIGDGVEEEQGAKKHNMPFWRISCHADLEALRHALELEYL
Target sequence (Q15475 whole entry, looked up): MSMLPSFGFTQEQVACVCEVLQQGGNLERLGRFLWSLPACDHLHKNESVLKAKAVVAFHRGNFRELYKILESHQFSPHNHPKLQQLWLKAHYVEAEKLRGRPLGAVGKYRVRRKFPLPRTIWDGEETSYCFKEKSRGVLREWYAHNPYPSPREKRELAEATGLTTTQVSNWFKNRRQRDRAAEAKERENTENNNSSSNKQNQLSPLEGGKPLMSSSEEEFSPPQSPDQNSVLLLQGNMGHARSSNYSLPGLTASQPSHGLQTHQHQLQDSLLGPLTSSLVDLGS
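Homogeneous AlphaScreen proximity assay pairing GST-Six1 with His-tagged Eya2 (added as 5X mix: 250 nM and 500 nM) in 50 mM Tris pH 8.0, 300 mM NaCl, 1 mM TCEP. Glutathione donor and nickel acceptor beads; 1 h, 37 °C, dark.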
Starred values were filed as active, the others as inactive; ? = inconclusive; · = not tested or not shown.

SMILES | TRPML1 agonist | TRPV1 potentiator | D2 PAM | CtBP-E1A inh | TRPML1 blocker | Six1-Eya2 blk
COc1cccc(CNc2cccc(C(F)(F)F)c2)c1O | -0.2 | 18.7 | -17.7 | 3.8 | -11.7 | 1.1
O=C(NCN1C(=O)C2C3C=CC(C3)C2C1=O)Nc1ccccc1O (stereo not drawn) | -0.7 | -8.9 | 9.7 | 8.2 | 11.2 | -4.4
O=C(CSc1nnc(C2CC2)n1-c1ccccc1)NCCc1ccccc1 | 0.8 | -4.3 | -18.6 | -7.2 | 23.5 | 0.2
Nn1c(SCC(=O)NC2CCCc3ccccc32)nnc1-c1cccs1 (stereo not drawn) | 1.0 | 4.5 | 17.7 | 6.9 | 10.9 | 3.5
CCN1CCN(c2nc(-c3cccnc3)nc3ccccc23)CC1 | 0.0 | -14.3 | -15.3 | -10.1 | 9.4 | -1.6
CCn1c2ccccc2c2cc(NC(=O)CSc3nnc(-c4cccc(OC)c4)n3N)ccc21 | 3.1 | 15.2 | 11.3 | -9.4 | 19.5 | -3.1
Cc1cc(C)n(-c2cc(Cl)cc(Cl)c2)c(=O)c1C#N | -0.7 | 3.7 | -3.1 | 5.1 | -15.7 | 11.4
O=C(O)c1ccc(O)cc1O | -0.3 | 1.4 | -1.0 | 7.8 | -8.1 | 1.4
CCOc1ccc(NC(=O)CC2C(=O)N(C)C(=S)N2Cc2ccco2)cc1 (stereo not drawn) | 0.5 | 2.3 | -10.2 | 12.7 | 21.6 | 17.1
CCc1ccc(CN2CCC(Oc3cc(C(=O)NC4CC4)ccc3OC)CC2)cc1 | 0.2 | · | -21.9 | 0.0 | -4.9 | 0.3
COc1cccc(OC)c1C(=O)N1CCN(S(=O)(=O)c2ccccc2)CC1 | -0.9 | 18.9 | -13.2 | 4.5 | -15.0 | 1.6
Cc1cc(C)nc(N/N=C/c2ccco2)n1 | 2.8 | -3.0 | -4.6 | 7.7 | 8.1 | -3.3
CC(C)(C)c1ccc(Oc2ccc(N)cn2)cc1 | 1.5 | -10.5 | -2.5 | -3.6 | 2.0 | -6.4
COc1ccc(C(=O)NC(=S)N2CCN(C)CC2)cc1Br | 1.7 | -22.6 | ? | · | 11.9 | 3.7
CC1C(=O)NN=C1c1ccc([N+](=O)[O-])cc1 (stereo not drawn) | 1.0 | · | 1.7 | -8.0 | -6.0 | -3.3
COC(=O)C1=C(C)NC2=C(C(=O)CC(C)(C)C2)C1c1cn(Cc2ccc(Br)cc2)nc1-c1ccccc1 (stereo not drawn) | -0.2 | -14.7 | 2.6 | -0.1 | 16.5 | 11.3
CC(=O)c1cn(CC(=O)NCc2ccco2)c2ccccc12 | 0.8 | 7.5 | 17.1 | 4.1 | -6.8 | 2.0
CCN(CC)S(=O)(=O)c1ccc2c(c1)nc(-c1ccccn1)n2C | -0.3 | 6.3 | -3.8 | 0.0 | -13.8 | -15.7
Cc1cccc(N=Cc2ccccc2O)c1C | -0.6 | · | -3.0 | 1.9 | 6.9 | -3.4
Cc1ccnc(Sc2ncccc2[N+](=O)[O-])n1 | 2.9 | 8.4 | 10.4 | 2.4 | -3.8 | 1.1
Cc1cc(C)n2nc(SCC(=O)N(C)Cc3ccccc3)nc2n1 | -0.5 | -20.7 | -14.7 | 4.4 | -3.2 | 5.3
CCc1ccc(OCCOC(=O)Nc2ccccc2)cc1 | 1.4 | -12.0 | -4.4 | · | 3.6 | 22.3
CCOC(=O)c1ccccc1NC(=O)c1cc2sccc2n1C | 0.9 | 0.6 | -2.4 | 5.8 | -17.8 | 0.0
COc1cc(OC)cc(-c2noc([C@@H]3O[C@H](CO)[C@H](O)[C@H](O)[C@H]3O)n2)c1 | -0.8 | · | -8.3 | 8.3 | · | 5.1
C/C(=N\NC(=S)Nc1c(C)cccc1C)c1cc2ccccc2o1 | 2.9 | 12.0 | -14.7 | · | 25.7 | -15.4
Cc1cc(OC(C)C(=O)N/N=C/CC(C)c2ccccc2)ccc1Cl (stereo not drawn) | -0.3 | 0.4 | 9.4 | -1.3 | -11.5 | -3.8
CCc1nc(SCC(=O)NCc2ccco2)c2c3c(sc2n1)CCCC3 | 0.6 | -1.1 | -1.9 | 13.2 | -3.9 | 3.1
Cc1cccc(C)c1-n1nnnc1-c1nc2cc3ccccc3cc2[nH]c1=O | 0.6 | · | · | -27.6 | · | ?
O=C(c1cnc(-c2ccccc2)s1)c1ccc(Cl)cc1Cl | 0.4 | 1.0 | -7.9 | 12.1 | 3.8 | 12.9
O=S(=O)(NC1CCCCC1Sc1ncccn1)c1ccccc1 (stereo not drawn) | 0.8 | 1.4 | -5.6 | -6.6 | -1.1 | 0.2
O=C(NNc1c2ccccc2nc2ccccc12)c1ccc(Cl)cc1 | 1.3 | -4.3 | 1.5 | -13.1 | -14.1 | -17.0
CNC(=O)[C@@]1(Cc2ccccc2)C=C[C@@H](C)N1C(C)=O | -0.3 | · | -0.8 | 11.2 | 7.3 | 10.0
Cn1ncc(Br)c1NC(=O)Nc1ccc(Cl)cc1 | 3.6 | ? | -39.1 | · | 14.1 | -23.3
CCOC(=O)C1=C(COC(=O)Cc2ccccc2)NC(=O)NC1C (stereo not drawn) | -0.5 | ? | -12.8 | 4.2 | -1.5 | -2.3
Cc1ccccc1N=C1c2cc([N+](=O)[O-])ccc2-c2ncccc21 | -1.0 | -3.9 | 16.1 | -18.6 | -11.1 | -23.7
CC(C)N(Cc1nc(-c2ccccc2)no1)C(=O)CN(C)S(=O)(=O)c1ccc(Br)cc1 | 0.5 | -5.5 | -9.5 | -0.7 | -6.3 | -1.1

Fetched by structure from the list above, 5 records:
SMILES | TRPML1 agonist | TRPV1 potentiator | D2 PAM | CtBP-E1A inh | TRPML1 blocker | Six1-Eya2 blk
Cn1ncc(Br)c1NC(=O)Nc1ccc(Cl)cc1 | 3.6 | ? | -39.1 | · | 14.1 | -23.3
Cc1cccc(C)c1-n1nnnc1-c1nc2cc3ccccc3cc2[nH]c1=O | 0.6 | · | · | -27.6 | · | ?
O=C(NNc1c2ccccc2nc2ccccc12)c1ccc(Cl)cc1 | 1.3 | -4.3 | 1.5 | -13.1 | -14.1 | -17.0
O=S(=O)(NC1CCCCC1Sc1ncccn1)c1ccccc1 (stereo not drawn) | 0.8 | 1.4 | -5.6 | -6.6 | -1.1 | 0.2
CC(C)N(Cc1nc(-c2ccccc2)no1)C(=O)CN(C)S(=O)(=O)c1ccc(Br)cc1 | 0.5 | -5.5 | -9.5 | -0.7 | -6.3 | -1.1

Additional compounds.
SMILES | TRPML1 agonist | TRPV1 potentiator | D2 PAM | CtBP-E1A inh | TRPML1 blocker | Six1-Eya2 blk
O=C(Cn1ccnc1[N+](=O)[O-])N(CCO)CCO | -0.2 | · | -7.2 | 1.8 | -2.2 | 2.3
Cc1cccc(-c2nn(-c3ccccc3)cc2C(=O)NCC(c2cccs2)N2CCOCC2)c1 (stereo not drawn) | 1.1 | -0.1 | -24.3 | -1.1 | 12.0 | -9.5
Cc1c(C)c(C)c(C(=O)c2ccc(NC(=O)c3ccccc3C(=O)O)cc2)c(C)c1C | -1.0 | 1.4 | -1.6 | 2.3 | 1.0 | 4.3
Cc1ccccc1NC(=O)Cc1nc(CSc2nnc(C3CCCCC3)n2N)cs1 | 0.0 | 14.6 | -4.5 | -1.4 | -2.8 | 0.7
Clc1ccc(-c2nnc3n2CCCC3)cc1 | -1.1 | 0.7 | -14.3 | -1.6 | 1.1 | -1.0
COc1ccc(/C(=N\O)c2nccc3cc(OC)c(OC)cc23)cc1OC | -0.5 | 12.7 | -0.6 | 5.9 | -3.3 | 4.8
CC(=O)Nc1ccc(NC=C(C#N)C#N)cc1 | 0.0 | 16.0 | -3.6 | -1.2 | -6.8 | -4.6
Cc1ccc(N2C(=O)C(Cl)=C(N3CCCCCC3)C2=O)cc1 | 9.8 | 10.7 | -30.0 | · | 16.7 | 5.6
CCN(CC)CCCN(C(=O)c1ccccc1C)c1nc(-c2ccc(OC)cc2)cs1 | -0.6 | -17.4 | -68.5 | · | 0.8 | -3.6
COc1ccc(Cl)cc1S(=O)(=O)n1nnc2ccccc21 | -0.8 | 8.0 | 5.3 | -11.8 | -12.4 | 3.2
COc1ccc(C(=O)NCc2cc(C)nc3ccccc23)cc1 | 2.6 | -0.4 | -5.3 | 1.5 | -10.9 | 5.4
O=C(CN1CCCCC1)N1CCN(c2ccccc2)CC1 | -0.1 | 8.5 | -0.6 | 0.0 | -18.6 | -8.9
Cn1c(CCNC(=O)c2ccccc2)nc2ccccc21 | -0.6 | ? | -8.8 | 5.3 | 0.8 | -1.8
CC(=O)C1=C(C)NC2=C(C(=O)CC(C)(C)C2)C1C (stereo not drawn) | 0.2 | -0.7 | -8.9 | -19.0 | 1.2 | 3.6
COc1ccc(-c2nonc2NC(=O)c2ccco2)cc1OC | 0.5 | 2.2 | -3.5 | · | 11.3 | 7.2
COc1ccc(NC(=S)Nc2ccccc2OC)c(OC)c1 | 0.5 | 4.8 | -9.2 | -1.3 | 17.5 | 2.8
CC(C)N(Cc1nccn1C)C(=O)c1ccc2oc(Cc3ccccc3)nc2c1 | -0.6 | 16.4 | -1.1 | 2.4 | -4.6 | -1.6
CCCN(C)C1CN(Cc2cn(Cc3ccc(OC)cc3)nn2)S(=O)(=O)C1 (stereo not drawn) | -0.9 | · | · | 0.0 | · | 15.5
O=C(CCNC(=O)C1CCN(S(=O)(=O)c2ccccc2)CC1)Nc1cccc(C(F)(F)F)c1 | -1.1 | -2.4 | -12.9 | 0.6 | -3.1 | 1.7
CCOc1ccccc1NC(=O)NNC(=O)c1ccc2ccccc2c1 | 3.0 | ? | 9.4 | 6.1 | 25.2 | -9.5
CC(NC(=O)CNC(=S)N(Cc1ccccc1)Cc1cccnc1)c1ccccc1 (stereo not drawn) | -1.0 | 4.8 | -14.0 | -2.9 | 2.7 | -10.4
COC(C[C@@H]1O[C@H]1C(=O)COCc1ccccc1)OC | -0.5 | · | -9.3 | 1.8 | 1.7 | 0.1
CCNC(=O)C1CCN(S(=O)(=O)c2ccc(F)cc2)CC1 | 2.9 | 4.9 | 15.1 | 5.5 | -11.8 | 7.1
Cc1c(C(=O)NCc2ccc3c(c2)OCO3)oc2ccccc12 | 2.8 | -3.5 | 5.6 | 3.6 | 20.0 | 2.0
Cc1ccc(-c2nnc(SCC(=O)Nc3ccc4c(c3)OCCO4)n2N)cc1 | 0.0 | 18.7 | -22.2 | -2.0 | 6.9 | -8.9
Cc1cc(C)nc(N2N=C(CSc3ccc(Cl)cc3)CC2=O)n1 | 0.5 | 23.9 | -8.7 | 0.2 | 30.8 | -4.8
COc1cccc(C(=O)N2CCN(C(=O)c3cccs3)CC2)c1OC | 0.1 | -5.9 | 3.7 | 3.3 | 7.1 | 2.5

Screening data (PubChem)
